TRPML1 blocker – blocks the human TRPML1 channel; TRPML1-inducible cells, Ca2+ dye fluorescence, FDSS; stronger effect = lower value; inhibition of EC80 agonist-evoked calcium signal; activity change, negative = inhibition, % (test concentration not listed); 0.02% of 390,000 active; AID 624415; Q9GZU1; in the data active means activity change below about -50%; inconclusive means about -30% to -50%; inactive means above about -30%;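 further: stimulus is agonist 54-4 at its EC80 concentration; on the % scale 0 is the no-effect control and ±100 the full control effect; compound concentration not given in the record; the text of the record puts the active cut at -80%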
Target sequence (Q9GZU1 whole entry, looked up): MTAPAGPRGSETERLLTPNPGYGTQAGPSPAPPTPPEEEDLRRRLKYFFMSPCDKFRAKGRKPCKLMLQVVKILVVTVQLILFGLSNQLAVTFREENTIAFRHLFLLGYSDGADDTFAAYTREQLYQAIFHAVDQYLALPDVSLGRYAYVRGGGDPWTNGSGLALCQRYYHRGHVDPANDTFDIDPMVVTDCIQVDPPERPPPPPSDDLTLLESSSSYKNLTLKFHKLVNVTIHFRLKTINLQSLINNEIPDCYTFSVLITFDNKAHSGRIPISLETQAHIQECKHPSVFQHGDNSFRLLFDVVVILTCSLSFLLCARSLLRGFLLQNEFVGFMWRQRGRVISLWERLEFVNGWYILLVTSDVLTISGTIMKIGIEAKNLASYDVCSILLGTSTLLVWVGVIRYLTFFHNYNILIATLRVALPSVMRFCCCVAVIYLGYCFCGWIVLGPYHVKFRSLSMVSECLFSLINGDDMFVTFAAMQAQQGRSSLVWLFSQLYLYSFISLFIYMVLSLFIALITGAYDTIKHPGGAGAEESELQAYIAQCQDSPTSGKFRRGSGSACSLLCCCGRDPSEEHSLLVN
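Tet-induced TRPML1-DL cells loaded with Ca8 no-wash calcium dye were read kinetically on FDSS. Compound addition was followed by EC80 agonist 54-4 (4 uM final); inhibition was read over 110 s.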
D2 potentiator – positive allosteric modulators of human D2 dopamine receptor; P14416; DiscoveRx D2 beta-arrestin cells, luminescence, 90 min; 100% = 57 uM dopamine signal; potentiation, % (no concentration beside the values); 0.23% of 360,000 active; active = potentiation of 50% or more; inconclusive = 30% to 50%; inactive = 30% or less;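 further: compound concentration not given in the record; tested on top of an EC20 dose of dopamine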
Target sequence (P14416 whole entry, looked up): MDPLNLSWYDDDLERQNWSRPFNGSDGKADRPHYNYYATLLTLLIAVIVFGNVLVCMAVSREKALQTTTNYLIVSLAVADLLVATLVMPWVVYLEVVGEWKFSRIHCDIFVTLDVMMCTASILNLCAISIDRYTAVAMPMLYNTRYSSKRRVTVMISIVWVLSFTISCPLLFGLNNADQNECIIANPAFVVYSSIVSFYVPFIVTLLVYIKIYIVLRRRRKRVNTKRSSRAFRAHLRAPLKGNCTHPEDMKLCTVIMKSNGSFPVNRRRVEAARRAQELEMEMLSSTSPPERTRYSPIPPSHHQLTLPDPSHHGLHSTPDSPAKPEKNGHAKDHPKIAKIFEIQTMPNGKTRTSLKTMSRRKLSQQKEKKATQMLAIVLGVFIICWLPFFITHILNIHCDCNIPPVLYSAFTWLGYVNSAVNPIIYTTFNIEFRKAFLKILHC
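PathHunter beta-arrestin assay in DiscoveRx D2 cells. Compounds were added with an EC20 of dopamine (50 nM final) for 90 min at 37 deg C. Luminescence was read 1 h after detection reagent, with 57 uM dopamine as the EC100 control.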
D2 agonist – activates the human D2 dopamine receptor; DiscoveRx PathHunter D2 beta-arrestin, luminescence, 90 min; 100% = 57 uM dopamine signal; AID 624465; P14416; activation, % (test concentration not listed); 0.084% of 360,000 active; in the data active = activation above about 40%; inconclusive = about 15% to 40%; inactive = below about 15%; further: compound concentration not given in the record; the text of the record calls up to 30% inactive
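DiscoveRx PathHunter D2 beta-arrestin cells (2,100/well) attached overnight, then compound-stimulated 90 min at 37 C in HBSS/10 mM HEPES/0.1% Tween-20 buffer; beta-galactosidase complementation read by luminescence after 1 h at ambient temperature. Dopamine 57 uM final (EC100) as control.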
Six1-Eya2 inh – inhibitors of human Six1/Eya2 interaction; Q15475+O00167; AlphaScreen GST-Six1/His-Eya2 binding, biochemical; stronger effect = lower value; control for the full effect not named in the record; activity change, % (concentration not given with the values); 0.56% of 360,000 active; AID 651725; in the data active = activity change below about -65%; inconclusive = about -30% to -65%; inactive = above about -30%; further: on the % scale 0 is the no-effect control and ±100 the full control effect
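Compounds are tested against tagged Six1 and Eya2 proteins bridged by glutathione donor and nickel acceptor beads; after a one-hour incubation at 37 °C without light, AlphaScreen emission is recorded.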
PINK1 modulator – modulators of PINK1 expression; PINK1 immunofluorescence, high-content cytometry, 24 h; Potency, µM (series often up to 76.6 µM), inactives show top-dose activation (PINK1 increase), hits mostly activators; 0.2% of 410,000 active; active = well fitted activation curve with a large enough effect; inconclusive = small, poorly fitted or top-dose-only effect; inactive = flat fitted curve, though single readings scatter; cell line not stated here;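 further: potency means the concentration at half of the fitted maximal effect; % of control where 0% means no effect; nearly all actives have a fitted effect of over 65% in size; a mitochondrial uncoupler was the plate control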
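Readout is PINK1 immunofluorescence, quantified alongside mitochondrial, cell and nuclear markers by laser-scanning microplate cytometry. Cells from a stable line were exposed to compound titrations (5 concentrations) for 24 hours, with CCCP controls.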
TRPML1 ag – human mucolipin-1 channel agonism | TRPML1-expressing cells, Ca2+ dye fluorescence, FDSS; host cell line not named in the record; reference of the full effect not given here | 0.12% of 410,000 active | Q9GZU1 | AID 624414 | activation, % (test concentration not listed); in the data active = activation above about 50%; inconclusive = about 30% to 50%; inactive = below about 30%; further: 0% is about no effect; the text of the record puts the active cut at 80%
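Calcium fluorescence on an FDSS kinetic reader gave the read-out. Tet-induced TRPML1-DL cells were plated overnight, dye-loaded (Ca8 with quencher, 45-90 min, room temperature, dark), then read 110 s after compound addition, and again 110 s after 4uM final 54-4 (EC80).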
Numbers without * were called inactive; ? = inconclusive; . = no result given; & = joins results of further samples; [ ] = another dose, or the depositor's remark.

cpd	mol	TRPML1 blocker	D2 potentiator	D2 agonist	Six1-Eya2 inh	PINK1 modulator	TRPML1 ag
1	COc1ccccc1NC(=O)c1ccc(-n2cncn2)nc1	15.1	6.7	-0.7	-0.7	0.6%	-0.6
2	CCc1ccc(NC(=O)c2cccc(C(=O)Nc3ccc(CC)cc3)n2)cc1	7.3	9.5	2.1	1.8	7.3%	1.5
3	O=C(O)CSc1c(O)c2ccccc2[nH]c1=O	20.3	-2.7	1.3	-23.3	12.8%	-0.3
4	O=C1CCN(Cc2ccc(Br)cc2)CCN1[C@H](CO)c1ccccc1	-5.0	-32.3	-0.7	-0.7	0.4%	0.1&1.2
5	Cn1c(=O)c2c(ncn2CC(=O)N2CCN(c3ccc(F)cc3)CC2)n(C)c1=O	-9.0	-6.0	-2.0	-2.2	-1.3%	-1.3
6	CCNc1nc(NCC)n2c(SCC(=O)Nc3ccc(Br)cc3F)nnc2n1	5.6	-7.3	-4.1	-17.6	-0.9%	1.1
7	CCOc1cc(/C=N/NC(=O)CSc2nncn2C)ccc1OCc1ccccc1	-7.9	-3.0	-2.3	0.3	5.0%	-1.0
8	Clc1ccc(-c2nc(-c3ccccn3)no2)cc1Cl	-9.0	-1.8	-0.3	2.1	-0.3%	0.2
9	O=C(CCN1CCOCC1)N/N=C/c1cc(Br)cc(Br)c1O	-0.5	-33.1	-8.7	-83.5*	-1.5%	-0.8
10	CC(=O)c1ccc(NC(=O)CCSCCC(=O)Nc2ccc(C(C)=O)cc2)cc1	19.5	-10.2	-0.1	-1.4	0.0%	0.3

(further entries)
cpd	mol	TRPML1 blocker	D2 potentiator	D2 agonist	Six1-Eya2 inh	PINK1 modulator	TRPML1 ag
11	O=C(COC(=O)CNC(=O)c1ccccc1F)Nc1ncc(Cl)cc1Cl	4.2	-1.2	0.6	-4.7	0.3%	-0.2
12	Cc1ccc(NC(=O)c2c(NC(=O)C(F)(F)F)sc3c2CCCCC3)cc1	6.1	.	.	.	?	-0.9
13	CCN(CC)S(=O)(=O)c1ccc2c(c1)N(CC(=O)Nc1cccnc1Cl)C(=O)CO2	-7.5	-9.9	-4.6	5.2	2.8%	0.9
14	CCN1CCN(C(=O)c2ccc3c(c2)N(Cc2ccccc2F)C(=O)c2ccccc2S3(=O)=O)CC1	-15.2&-13.9	-33.1	-7.5	-0.2	-1.2%&-0.1%	-0.9&-0.7
15	COc1ccc(/C=N/NC(=O)c2cc(C34CC5CC(CC(C5)C3)C4)[nH]n2)cc1OC	3.9	0.5	0.4	-2.6	1.7%	-0.3
16	Cc1cc(Nc2cccc(Cl)c2)nc2ccc(NC(=O)c3ccc(F)cc3Cl)cc12	20.8	.	.	.	5.5%	-0.7
17	CS(=O)(=O)NCCOc1ccc(S(=O)(=O)N2CCCc3ccccc32)cc1	2.1	4.8	2.1	1.2	.	1.0
18	O=C1C2CCCN2C(=S)N1C1CCCCC1 (configuration not stated)	1.6	-0.8	5.2	5.9	-0.9%	-0.3
19	Cc1cccc(NS(=O)(=O)c2ccc(Cl)cc2)n1	10.3	-20.8	-4.9	20.2	0.7%	-1.0
20	O=C(NC(=S)Nc1ccccc1N1CCCCC1)c1ccc(F)cc1	?	-31.0	-8.5	-25.3	15.5%	0.4

Next section.
cpd	mol	TRPML1 blocker	D2 potentiator	D2 agonist	Six1-Eya2 inh	PINK1 modulator	TRPML1 ag
21	Cc1ccc(C)c(S(=O)(=O)N2CCN(C(=O)CCCc3c[nH]c4ccccc34)CC2)c1	-2.8	4.1	0.7	-19.7	0.0%	0.3
22	Cc1cccc(C)c1NC(=O)NC1(C(=O)N2CCOCC2)CCCCC1	0.5	0.0	2.1	4.9	1.0%	-0.2
23	COc1cccc(C2CC(c3cccs3)=NN2S(C)(=O)=O)c1OC (configuration not stated)	15.8	-4.8	0.3	-2.9	-0.1%	0.3
24	CN(C)/C(=N\S(=O)(=O)c1ccc(Cl)cc1)c1ccc(F)cc1	-11.9	-0.6	8.2	2.0	-0.6%	0.0
25	Cc1c(C=O)c(=O)n(-c2ccccc2)n1C	4.1	-0.8	-6.3	3.0	0.1%	3.1
26	Fc1ccccc1CNC(=S)Nc1cccc(C(F)(F)F)c1	-8.2	4.2	4.1	11.9	?	1.0
27	CCCCN(CCCC)c1cc(C)nc(-c2ccccc2O)n1	18.9	8.7	3.4	29.6	2.2%	-0.7
28	COc1ccc(C2=C(C)CC(C)(C)NC2=O)cc1OC	11.5	-2.5	1.3	5.1	-0.8%	-0.4
29	Cc1sc2nc(SCc3ccccc3)n(Cc3ccco3)c(=O)c2c1C	15.0	-9.5	-0.7	3.1	?	1.5
30	O=C(O)c1cccc(CN2C(=O)SC(Nc3ccccc3)C2=O)c1 (configuration not stated)	-6.1	-3.6	-1.4	4.6	0.6%	0.7

(more compounds)
cpd	mol	TRPML1 blocker	D2 potentiator	D2 agonist	Six1-Eya2 inh	PINK1 modulator	TRPML1 ag
31	CCCCOc1ccc(C(=O)NNC(=O)C2C3CCC(C3)C2C(=O)O)cc1 (configuration not stated)	12.1	-13.8	2.7	1.3	-0.6%	0.7
32	Cc1ccc(NC(=O)CCN2CCN(CCO)CC2)cc1C	11.3	.	.	.	3.5%	0.8
33	CN(C)C(=O)c1cc(C(=O)c2ccccc2Br)c[nH]1	-0.9	-11.7	-2.4	5.7	2.4%	1.5
34	O=C(Nc1ccc(Br)cc1)Nc1cnccn1	5.1	-1.5	-0.4	1.3	-1.0%	-0.6
35	C=CCN1C(=O)CS/C1=N\N=C\c1cccc([N+](=O)[O-])c1	14.5	-3.0	0.2	-8.5	5.0%	3.8
36	CCCn1c(SCC(=O)NC23CC4CC(CC(C4)C2)C3)n[nH]c1=O	2.2	5.1	1.9	0.8	1.8%	-0.3
37	CC1CCc2c(sc3nc(CSc4n[nH]c(N)n4)[nH]c(=O)c23)C1 (configuration not stated)	2.7	1.5	-0.3	-8.6	0.1%	1.3
38	O=C(Nc1nc(-c2ccccc2)cs1)c1ccccc1NS(=O)(=O)c1ccc(F)cc1	-9.8	1.6	0.9	-10.3	?	4.1
39	O=C(CSc1nccc(-c2ccc(Br)cc2)n1)NCCc1ccccc1	2.1	11.8	-1.3	7.0	13.4%[38.3 µM]	2.5
40	COc1ccccc1C(=O)NC(=S)Nc1ccc(NC(=O)c2cccs2)cc1	-7.1	-1.2	2.4	-2.5	9.1%	0.3

(listing goes on)
cpd	mol	TRPML1 blocker	D2 potentiator	D2 agonist	Six1-Eya2 inh	PINK1 modulator	TRPML1 ag
41	O=[N+]([O-])c1ccccc1/C=C/CN1CCCCC1	-5.5	-19.6	5.6	2.6	1.6%[38.3 µM]	0.1
42	CCCCNc1c(-c2ccc(SC(C)CC)cc2)nc2ccccn12 (configuration not stated)	45.8	-11.4	?	3.9&11.3	-1.5%&25.9%	0.5&0.0
43	Cc1cccc(/C=C2/C(=O)/C(=C/c3ccccc3C)C3CCC2N3C)c1 (configuration not stated)	-3.5	3.1	-0.5	-0.9	19.9%	-0.4
44	CCOC(=O)c1sc2nccc(N(C)C)c2c1N=CNOCc1ccccc1	16.6	-2.8	-3.3	50.3	3.9%	0.8
45	CC1CN(C(=O)c2cccc(COc3ccccc3Cl)c2)CC(C)O1 (configuration not stated)	5.3	-11.5	-5.2	6.4	-0.9%	0.8
46	Cn1c(C(=O)N2CCC(C(N)=O)CC2)cc2c(=O)n(C)c3ccccc3c21	-20.3	-3.4	0.0	-6.7	-1.1%	0.2
47	O=C(NN1CCOCC1)c1cccc2ccccc12	-0.4	-4.6	-1.6	-1.1	-1.4%	0.0
48	Cc1cc(Cl)ccc1NC(=O)CCN1C(=O)NC(C)(C)C1=O	-6.7	-3.8	0.1	1.2	-0.3%	-0.3
49	COc1ccc2c(c1)c1c(c(=O)n(CCc3ccccc3)c(=O)n1Cc1cccc(F)c1)n2C	-9.0	.	.	.	0.4%	-0.3
50	CCOc1ccc(/C=N/Nc2ccccc2)cc1	0.3	-5.3	-2.1	-1.4	1.4%	-0.6

Molecules shown so far with a nitro group on carbon:
cpd	mol	TRPML1 blocker	D2 potentiator	D2 agonist	Six1-Eya2 inh	PINK1 modulator	TRPML1 ag
35	C=CCN1C(=O)CS/C1=N\N=C\c1cccc([N+](=O)[O-])c1	14.5	-3.0	0.2	-8.5	5.0%	3.8
41	O=[N+]([O-])c1ccccc1/C=C/CN1CCCCC1	-5.5	-19.6	5.6	2.6	1.6%[38.3 µM]	0.1

(next part)
cpd	mol	TRPML1 blocker	D2 potentiator	D2 agonist	Six1-Eya2 inh	PINK1 modulator	TRPML1 ag
51	CCCN(Cc1cc2ccccc2[nH]c1=O)C(=O)c1cccc([N+](=O)[O-])c1	14.4	-2.4	-2.7	6.7	3.4%	0.9
52	Cc1ccc(-n2[nH]c(C)c(/C=N/Nc3ccc([N+](=O)[O-])cc3[N+](=O)[O-])c2=O)cc1C	0.1	-9.6	-7.0	-2.0	?	1.9
53	Cc1ccc(N/C=C(/C#N)c2ccsc2)cc1	-2.6	-24.2	-3.9	-14.5	-0.2%	0.0
54	Cc1ccc2nc(N3CCN(CCO)CC3)nc(-c3ccccc3)c2c1	-1.6	-21.8	0.3	2.6	-1.4%	0.8
55	Cc1ccc(CCNC(=O)CS(=O)Cc2nc(-c3cccc(C)c3)oc2C)cc1 (configuration not stated)	-9.4	-5.1	-4.7	-15.5	3.9%	0.4
56	Cn1c(=O)c2cc(NC(=O)Nc3cccnc3)ccc2n1Cc1cccc(C(F)(F)F)c1	.	-6.0	-2.2	-19.6	7.8%	-0.7
57	Cc1ccc(CSCC(Nc2ccc(C(=O)O)cc2[N+](=O)[O-])C(=O)O)cc1 (configuration not stated)	-14.5	-14.8	-4.3	0.8	.	-0.2
58	Cn1cnnc1SCC(=O)Nc1sc2c(c1C#N)CCCCC2	5.0	-11.3	-0.1	-0.9	?	0.7
59	CCCC/C(C)=N/NC(=O)Nc1ccccc1	17.1	-1.9	-1.3	11.3	5.6%	-0.4
60	O=C(Nc1cccc(C(=O)O)c1)/C(=C\c1ccccc1)NC(=O)c1ccco1	8.9	-8.0	-0.4	-0.7	-0.4%	-0.9

More structures follow.
cpd	mol	TRPML1 blocker	D2 potentiator	D2 agonist	Six1-Eya2 inh	PINK1 modulator	TRPML1 ag
61	Cc1nc(CS(=O)c2ccccc2)cc(N2CCOCC2)n1 (configuration not stated)	-9.0	-4.7	-0.1	8.6	-1.8%	0.4
62	COc1ccc(NC(=O)/C=C/c2ccc(C)o2)cc1S(=O)(=O)N1CCOCC1	-4.0	3.0	-1.0	-24.2	1.9%	-0.3
63	CC(=O)Nc1ccc(NC(=O)c2cc3sccc3n2Cc2ccc(F)cc2)cc1	8.5	.	.	.	5.2%	-0.7
64	CCc1ccccc1NC(=S)N(Cc1ccc(OC)cc1)CC1CCC(C(=O)O)CC1 (configuration not stated)	-20.6	2.3	-3.7	-1.2	-0.2%	0.2

Compounds as they come; about 1% have a hit in one of these screens.
